Source: PubChem BioAssay (National Center for Advancing Translational Sciences (NCATS))
HPGD block – qHTS Assay for Inhibitors of HPGD (15-Hydroxyprostaglandin Dehydrogenase); 15-hydroxyprostaglandin dehydrogenase [NAD(+)] (Homo sapiens), P15428; purified HPGD, NADH fluorescence kinetic, PGE2 substrate; Potency, µM, for the others: at the highest dose activity change, negative = inhibition, usual class: inhibitors; actives 4.3% (n = 150,000); AID 894, 2007; active = well fitted inhibition curve with a large enough effect (not every such curve was filed as active); inconclusive = small, poorly fitted or top-dose-only effect, or another doubt; inactive = no such curve, though single readings can be large or run the other way;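 note: top concentration of the series not given in the record; plate controls included wells without enzyme; inactives centre near -10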
Target sequence (P15428 whole entry, looked up): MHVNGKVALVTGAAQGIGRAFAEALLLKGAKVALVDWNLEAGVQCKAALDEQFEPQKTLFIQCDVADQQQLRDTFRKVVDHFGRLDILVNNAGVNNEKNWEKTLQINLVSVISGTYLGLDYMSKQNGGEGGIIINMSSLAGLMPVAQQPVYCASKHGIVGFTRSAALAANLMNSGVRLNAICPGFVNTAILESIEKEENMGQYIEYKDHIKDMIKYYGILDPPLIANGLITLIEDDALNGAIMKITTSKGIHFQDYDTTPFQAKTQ
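NADH formation kinetics: reaction with 30 uM PGE2 and 1 mM NAD+ (final), 20 nM enzyme, Tris-HCl pH 8 with Tween 20, after 15 min compound preincubation at room temperature. Fluorescence change, last versus first of five reads.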
* hit, by the source's call; & = joins results of further samples. % is set by controls: 0 for no effect and ±100 for the full control effect; potency is the fitted concentration of half-maximal effect. An excerpt (hit frequency here may not be typical).

Results for C[N+]1(CC2COC3(CCCCC3)O2)CCCC1 (stereo unspecified) ?
HPGD block: -6.0%

How did Cc1cc(C)n2nc(C(=O)Nc3ccc4c(c3)OCO4)cc2n1 do in these assays?
HPGD block: -15.0%

Results for CCOCCCn1c(=S)[nH]c2cc(C(=O)NCCOC)ccc2c1=O ?
HPGD block: -24.9%

Results for COc1cc2c(cc1OC)C(CC#N)=NC(C)(C)C2 ?
HPGD block: -10.9%

How did COc1ccc(NCc2nc3ccccc3n2CCOc2ccc(C)cc2)cc1 do in these assays?
HPGD block: -17.1%

How did CCCc1nnc(NC(=O)c2c(O)c3c([nH]c2=O)CCCC3)s1 do in these assays?
HPGD block: -11.4%

How did Cc1ccc(C2CC(c3cccs3)n3nc(N)nc3N2)cc1 (stereo unspecified) do in these assays?
HPGD block: -6.3%

Results for Oc1ccccc1-c1cc(C(F)(F)C(F)F)nc(-c2ccccc2)n1 ?
HPGD block: -5.4%

Results for C/C=C/C=[N+](\[O-])C(C)/C(=N/O)c1ccc(F)cc1 (stereo unspecified) ?
HPGD block: -13.2%

What do the screens show for `Cc1ccc(N2CCN(C(=O)N3CCCC3)CC2)cc1Cl`?
HPGD block: -22.8%

Results for CCN=C1S/C(=C\c2sccc2C)C(=O)N1CC ?
HPGD block: -18.2%

What do the screens show for `Cc1ccc(N(CC(=O)N2CCOCC2)S(=O)(=O)c2ccccc2)cc1`?
HPGD block: -4.5%

Results for CCCCCCCCn1c(=O)c(C(=O)OCC)c(O)c2ccccc21 ?
HPGD block: -12.1%

What do the screens show for `CC(=O)Nc1ccc(-c2csc(NC(=O)C3CCN(S(=O)(=O)c4cccs4)CC3)n2)cc1`?
HPGD block: -28.0%

Results for Cc1c(NC(=O)C2(c3ccccc3)CCCC2)c(=O)n(-c2ccccc2)n1C ?
HPGD block: -5.1%

How did COc1cc(CC(=O)Nc2cccc(C(F)(F)F)c2)cc(OC)c1OC do in these assays?
HPGD block: -12.8%

How did Cc1cccc2cc(CN(CC3CCCO3)C(=O)c3cccnc3)c3nnnn3c12 (stereo unspecified) do in these assays?
HPGD block: -4.5%

How did CSc1nc(NC2CCCC2)c([N+](=O)[O-])c(NC2CCCC2)n1 do in these assays?
HPGD block: -0.7%

Results for COc1ccccc1N1CC(C)C(=O)NC1=S (stereo unspecified) ?
HPGD block: -6.7%

What do the screens show for `C/C=C(/C)C(=O)OC1c2c(ccc3ccc(=O)oc23)OC(C)(C)C1OC(C)=O` (stereo unspecified)?
HPGD block: inconclusive

What do the screens show for `Cc1nnc(SCC(=O)N2CCN(c3ccccc3)CC2)n1-c1ccccc1`?
HPGD block: -21.7%

How did Cc1c(NC(=O)Nc2ccc3c(c2)OCO3)c(=O)n(-c2ccccc2)n1C do in these assays?
HPGD block: -4.4%

Results for COc1ccc(C)cc1N(C(=O)COc1ccccc1)c1nc2ccccc2s1 ?
HPGD block: -4.0%

What do the screens show for `O=S(=O)(CCc1nc2ccccc2s1)c1ccc(Cl)cc1`?
HPGD block: -9.5%

How did O=C(CN(Cc1ccccc1F)C(=O)Cn1nnc(-c2cccs2)n1)NC1CCCCC1 do in these assays?
HPGD block: -13.5%

Results for COc1ccc(OC)c(NC(=O)C2CCCN(S(=O)(=O)c3cccc4nonc34)C2)c1 (stereo unspecified) ?
HPGD block: -10.1%

Results for Cc1cc2ccccc2n1CCNC(=O)Cc1ccccc1 ?
HPGD block: -6.7%

Results for O=C(O)CCCCCCCCCC(=O)c1cccs1 ?
HPGD block: 15.8µM*

What do the screens show for `Cc1cc(Oc2ccc(-c3ccccc3)cc2)nc(N2CCOCC2)n1`?
HPGD block: -11.4%

Results for COc1ncc2ncc(=O)n(Cc3cccs3)c2n1 ?
HPGD block: inconclusive

How did Cc1cc(C)nc(SCC(=O)Nc2ccc(Br)cn2)n1 do in these assays?
HPGD block: -13.9%

What do the screens show for `CCC(C)NC(=O)c1ccccc1NC(=O)/C(=C/c1ccc(OC)cc1)c1ccccc1` (stereo unspecified)?
HPGD block: -6.8%

How did Cc1nc2nc(SCC(=O)NCCN3CCOCC3)nn2c(C)c1Cc1ccccc1 do in these assays?
HPGD block: -26.1%

What do the screens show for `CCCc1ccc(-c2cc(C(=O)N/N=C/c3ccc([N+](=O)[O-])o3)c3ccccc3n2)cc1`?
HPGD block: -18.2%

What do the screens show for `O=C(Cn1c(=O)oc2cc(S(=O)(=O)N3CCCC3)ccc21)NC1CCCc2ccccc21` (stereo unspecified)?
HPGD block: -4.9%

How did COc1ccc(C2CC(=O)C3=C(C2)Nc2ncnn2C3c2ccccc2C)c(OC)c1 (stereo unspecified) do in these assays?
HPGD block: -15.9%

How did NC1=NC(c2ccc(F)cc2)n2c(nc3ccccc32)N1 (stereo unspecified) do in these assays?
HPGD block: -19.6%

What do the screens show for `COc1cc(S(=O)(=O)Nc2cccc(C(=O)O)c2)c(OC)cc1Cl`?
HPGD block: -5.1%

What do the screens show for `CCN(c1ccccc1)S(=O)(=O)c1ccc(Cl)c(NC(=O)Nc2ccc(Cl)cc2C#N)c1`?
HPGD block: -2.9%

How did COCC(=O)N1CCC2(CC1)CCN(c1ccc(-c3ccccc3)cc1)CC2 do in these assays?
HPGD block: -18.2%

Results for CC(=O)N=C1SC2CS(=O)(=O)CC2N1c1ccccc1Cl (stereo unspecified) ?
HPGD block: -2.9%

Results for CCCS(=O)(=O)N1CCCC(c2nc(-c3ccc(OC)cc3)no2)C1 (stereo unspecified) ?
HPGD block: -6.8%

What do the screens show for `O=C(NCCN1CCc2ccccc2C1)Nc1ccc(F)cc1`?
HPGD block: -2.8%

What do the screens show for `COc1ccccc1NC(=O)Cn1nnc(-c2ccccc2NS(=O)(=O)c2ccccc2)n1`?
HPGD block: -9.5%

Results for Fc1ccccc1COc1ccc(-c2nnn(Cc3ccccc3F)n2)cc1 ?
HPGD block: -15.3%

What do the screens show for `CCS(=O)(=O)N1CCC(C(=O)NCc2ccc(F)cc2Cl)CC1`?
HPGD block: -13.8%

How did O=C(C1CC(c2ccccc2O)=NO1)N1CCCC1 (stereo unspecified) do in these assays?
HPGD block: -14.5%

Results for COC(=O)[C@@]1(Cc2ccc(OC)cc2)[C@H]2c3cc(C(=O)N4CCCC4)n(CCF)c3C[C@H]2CN1C(=O)c1ccccc1 ?
HPGD block: -7.4%

Results for Cc1ccc(C(=O)NN(CCC(=O)NC(C)(C)C)C2=NS(=O)(=O)c3ccccc32)cc1 ?
HPGD block: -3.2%

What do the screens show for `CC(C)n1c(N2CCN(C(=O)NCc3ccccc3)CC2)nc2ccccc21`?
HPGD block: -7.5%

How did Cc1ccc2nsnc2c1S(=O)(=O)NCc1ccc2c(c1)OCO2 do in these assays?
HPGD block: -0.5%

How did Cn1c(N)c(C(=O)COC(=O)c2cc(C3CC3)nc3ccccc23)c(=O)n(C)c1=O do in these assays?
HPGD block: -1.9%&-16.8%

Results for COc1ccc(OC(C)C(=O)Nc2cccc(OC)c2)cc1 (stereo unspecified) ?
HPGD block: -13.7%

Results for Cc1c(C(=O)N2CCc3ccccc32)oc2ccccc12 ?
HPGD block: -12.6%

Results for Cc1ccc(-c2nc3ccsc3c(=O)o2)cc1 ?
HPGD block: -16.1%

How did CCOC(=O)N1CCN(C(=O)c2ccccc2-c2ccccc2)CC1 do in these assays?
HPGD block: 1.1%

What do the screens show for `Cc1nc2[nH]onc2c2nccc(=O)c12`?
HPGD block: -11.0%

How did CC(=NC1CCCC1)c1c(C)[nH]n(-c2nc3ccccc3s2)c1=O do in these assays?
HPGD block: -16.1%

What do the screens show for `CCOC(=O)CSc1nnc(-c2ccccc2OC)o1`?
HPGD block: -9.6%

What do the screens show for `COCCCNC(=O)C1CC(=O)N(CCc2ccccc2)C1` (stereo unspecified)?
HPGD block: -5.2%

How did Cc1cccc(S(=O)(=O)NCCC(=O)OCC(=O)Nc2ccc(C#N)cc2)c1 do in these assays?
HPGD block: -8.7%

What do the screens show for `O=C(CN1C(=O)c2ccccc2C1=O)Nc1ccccc1C(=O)NC1CCCCCC1`?
HPGD block: -3.8%

How did Cc1ccc(OCC(=O)N2CCOCC2)cc1C do in these assays?
HPGD block: -13.5%

How did Cc1nn(Cc2ccc(F)cc2)c(C)c1NC(=O)c1cnn2cccnc12 do in these assays?
HPGD block: -5.9%

Results for CCOc1nc(-c2ccc(OC)cc2)ccc1-c1noc(-c2ccncc2)n1 ?
HPGD block: -8.0%

What do the screens show for `O=C(CSCc1ccccc1Cl)N1CCN(c2ccccn2)CC1`?
HPGD block: inconclusive

How did CCOC(=O)CC1(c2ccccc2)CCOC(C)(C)C1 (stereo unspecified) do in these assays?
HPGD block: -4.2%

What do the screens show for `CCOC(=O)C(C)Oc1cccc2c(=O)n(CC(=O)Nc3ccc4c(c3)OCCO4)ccc12` (stereo unspecified)?
HPGD block: -18.5%

Results for Cc1cc2nc(C3CCN(CC4COc5ccccc5O4)CC3)[nH]c2cc1C (stereo unspecified) ?
HPGD block: -3.0%

What do the screens show for `N#Cc1c(-c2ccccc2)cc(C2CC2)nc1SCC(=O)c1cccs1`?
HPGD block: -13.1%

What do the screens show for `COc1cccc(C=NCC(C)N=Cc2cccc(OC)c2O)c1O` (stereo unspecified)?
HPGD block: -13.9%

Results for CCCc1nc(SCC(=O)Nc2ccccc2OC)c2c(=O)n(C)c(=O)n(C)c2n1 ?
HPGD block: -0.3%

How did Cc1snc(S(=O)(=O)Cc2c(Cl)cccc2Cl)c1C#N do in these assays?
HPGD block: -8.5%

Results for Cc1cc(N/N=C/c2cccc(Cl)c2)nc(NCc2ccccc2)n1 ?
HPGD block: -11.2%

How did Cc1cc2cc(CNC(=O)c3cccs3)ccc2[nH]1 do in these assays?
HPGD block: 7.08µM*

Structures above with a COOH group, in the order listed:
Results for O=C(O)CCCCCCCCCC(=O)c1cccs1 ?
HPGD block: 15.8µM*

What do the screens show for `COc1cc(S(=O)(=O)Nc2cccc(C(=O)O)c2)c(OC)cc1Cl`?
HPGD block: -5.1%

Further records follow:
What do the screens show for `CCOC(=O)Cn1c(=O)c2c(nc(Br)n2Cc2ccccc2Cl)n(C)c1=O`?
HPGD block: -11.3%

How did C=C1C(=O)[C@@]23[C@H](O)C[C@@H]4C(C)(C)CC[C@H](O)[C@]4(C)[C@@H]2C[C@H](O)[C@@H]1[C@H]3O do in these assays?
HPGD block: -14.6%

Results for O=C(CSc1nnc(-c2ccco2)n1Cc1ccccc1)NC(=O)NCc1ccco1 ?
HPGD block: -16.1%

Results for COC(=O)C1C2C=CC3(CN(c4ccc(Cl)c(F)c4)C(=O)C13)O2 (stereo unspecified) ?
HPGD block: -11.3%

How did COc1cccc(-c2cc(C(=O)O)no2)c1 do in these assays?
HPGD block: 5.62µM*

Results for [S-]C(=Nc1ccc(Cl)cc1)N[n+]1ccccc1 ?
HPGD block: 6.31µM*

How did O=C(N=C1c2ccccc2CN1c1ccc(F)cc1)c1ccc(Cl)nc1 do in these assays?
HPGD block: -7.3%

Results for O=C(CCCSc1ccccc1)Nc1nc(-c2ccco2)c(-c2ccco2)s1 ?
HPGD block: inconclusive

What do the screens show for `O=C(CSc1nnnn1-c1ccc2c(c1)OCCO2)OC1CCCCC1`?
HPGD block: -24.6%

Results for Cc1cc(OCC(=O)N2CCCC2)ccc1Cl ?
HPGD block: -24.6%

How did OCCN(Cc1ccccc1)Cc1ccccc1F do in these assays?
HPGD block: 1.5%

Results for C(=N\NC1=Nc2cccc3cccc1c23)/c1ccccc1 ?
HPGD block: -15.7%

How did O=C(O)c1cn(-c2ccccc2)nc1-c1ccncc1 do in these assays?
HPGD block: inconclusive

Results for COC(=O)CCCC1=CC2=CC(=O)C(C)(OC(=O)c3ccco3)C(=O)C2=CO1 (stereo unspecified) ?
HPGD block: -12.0%

What do the screens show for `Cc1nc2ccc(F)cc2cc1C(=O)NC(C)C`?
HPGD block: -9.5%

Molecules shown so far with a cyano group:
Results for COc1cc2c(cc1OC)C(CC#N)=NC(C)(C)C2 ?
HPGD block: -10.9%

What do the screens show for `CCN(c1ccccc1)S(=O)(=O)c1ccc(Cl)c(NC(=O)Nc2ccc(Cl)cc2C#N)c1`?
HPGD block: -2.9%

How did Cc1cccc(S(=O)(=O)NCCC(=O)OCC(=O)Nc2ccc(C#N)cc2)c1 do in these assays?
HPGD block: -8.7%

What do the screens show for `N#Cc1c(-c2ccccc2)cc(C2CC2)nc1SCC(=O)c1cccs1`?
HPGD block: -13.1%

How did Cc1snc(S(=O)(=O)Cc2c(Cl)cccc2Cl)c1C#N do in these assays?
HPGD block: -8.5%

Next results follow.
What do the screens show for `O=C(Cn1c(=O)n(Cc2ccco2)c(=O)c2ccccc21)Nc1cccc(Cl)c1`?
HPGD block: -8.0%

How did COc1cc(/C=N/N=C2\CC3CCC2(C)C3(C)C)ccc1O (stereo unspecified) do in these assays?
HPGD block: -25.0%

Results for CCOc1ccc(N2CC(C(=O)NCCC3=CCCCC3)CC2=O)cc1 (stereo unspecified) ?
HPGD block: 1.2%

What do the screens show for `C=CCNC(=O)c1onc(CSc2ccc(F)cc2)c1C(=O)NCCOC`?
HPGD block: -6.8%

Results for O=C1CCC(=O)c2oc3ccccc3c2N1 ?
HPGD block: -16.0%

What do the screens show for `COc1ccc(N(CC(O)Cn2c(C)nc3ccccc32)S(=O)(=O)c2ccc(C)cc2)cc1` (stereo unspecified)?
HPGD block: -0.5%

Results for Cc1ccc(C)n1CCN1CCN(C(=O)CSc2nc3ccccc3nc2N2CCOCC2)CC1 ?
HPGD block: -10.2%

What do the screens show for `O=C(NCCC1=CCCCC1)C(=O)NCC(c1ccco1)N1CCN(c2ccc(F)cc2)CC1` (stereo unspecified)?
HPGD block: -3.8%

How did CCCCC(=O)Nc1ccc(NC(=O)c2ccc([N+](=O)[O-])cc2Cl)cc1OC do in these assays?
HPGD block: -4.9%
